VDR inh – vitamin D3 receptor (human) inhibition | P11473 | VDR-SRC2-3 peptide fluorescence polarization, 2 h | Potency, µM, without a hit: max response, negative = inhibition, hits mostly inhibitors | 0.93% of 400,000 active | AID 504847; active = well fitted inhibition curve with a large enough effect; inconclusive = small, poorly fitted or top-dose-only effect, or another doubt; inactive = no such curve, though single readings can be large or run the other way; note: series mostly up to about 120 µM
Target sequence (P11473 whole entry, looked up): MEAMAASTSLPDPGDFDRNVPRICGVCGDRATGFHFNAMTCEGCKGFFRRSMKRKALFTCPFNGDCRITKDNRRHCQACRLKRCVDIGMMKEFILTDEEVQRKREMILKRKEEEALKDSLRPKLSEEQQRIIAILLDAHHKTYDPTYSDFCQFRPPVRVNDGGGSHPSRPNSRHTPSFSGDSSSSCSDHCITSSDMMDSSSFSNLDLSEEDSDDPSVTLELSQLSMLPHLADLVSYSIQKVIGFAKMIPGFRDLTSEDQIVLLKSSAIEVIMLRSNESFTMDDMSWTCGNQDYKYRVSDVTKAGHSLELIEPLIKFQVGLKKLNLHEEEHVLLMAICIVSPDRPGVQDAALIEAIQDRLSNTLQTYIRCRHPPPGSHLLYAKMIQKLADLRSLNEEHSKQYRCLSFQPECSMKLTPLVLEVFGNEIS
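Fluorescence polarization assay of small-molecule disruption of VDR binding to coregulator peptide SRC2-3. Compounds and controls pin-transferred, then read after 2 h incubation at ambient room temperature.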
Starred values were filed as active, the others as inactive; ? = inconclusive; & = joins results of further samples. % is set by controls: 0 for no effect and ±100 for the full control effect; potency is the fitted concentration of half-maximal effect.

VDR inh | Structure
-19% | COc1cc2c(cc1OC)C(COc1ccccc1OC)N(C(C)=O)CC2 (centres undefined)
10% | CCCCNC(=O)OCC(CC)NC(=O)OCC(C)C (centres undefined)
-24% | C=CCn1c(CCNC(=O)c2cccs2)nnc1SCC(=O)c1cccc([N+](=O)[O-])c1
4% | CCC1=Nc2cc(C(=O)NCCCOC)ccc2Sc2ccccc21
-1% | CC(C)C(NC(=O)CCNC(=O)c1ccc(C(C)(C)C)cc1)c1nc2ccccc2[nH]1 (centres undefined)
3% | Clc1nccnc1N/N=C/c1ccc(Br)cc1
-7% | O=C(NC1CCCCC1)C1CCCN(S(=O)(=O)c2ccc(F)cc2)C1 (centres undefined)
-3% | COc1cccc(-c2nc(S(=O)(=O)c3ccc(C)cc3)c(N3CCCCC3)o2)c1
1% | O=C(CCNS(=O)(=O)c1cccc2nsnc12)NCc1ccc(F)cc1
-8% | Oc1c(C(c2ccccc2Cl)N2CCC(O)CC2)sc2nc(-c3ccco3)nn12 (centres undefined)

Another view of some results above:
CCC1=Nc2cc(C(=O)NCCCOC)ccc2Sc2ccccc21
  VDR inh: 4%
O=C(CCNS(=O)(=O)c1cccc2nsnc12)NCc1ccc(F)cc1
  VDR inh: 1%
Clc1nccnc1N/N=C/c1ccc(Br)cc1
  VDR inh: 3%
O=C(NC1CCCCC1)C1CCCN(S(=O)(=O)c2ccc(F)cc2)C1 (centres undefined)
  VDR inh: -7%

Going on with the list:
VDR inh | Structure
? | NC(=O)COC(=O)C12CC3CC(CC(O)(C3)C1)C2
-11% | CN(CC(=O)Nc1ccccc1Cl)CC(=O)N1CCc2ccccc21
-6% | C#Cc1ccc([C@@H]2C=C(C(=O)N3CCOCC3)O[C@H](OCc3ccc(CO)cc3)C2)cc1
-29% | Nc1cc(OC(=O)c2ccco2)nn1S(=O)(=O)c1ccc(F)cc1
-1% | COc1ccccc1Oc1cc(-n2nc(C)cc2C)ncn1
14% | COc1ccc(CCN2C(=O)CC(NC34CC5CC(CC(C5)C3)C4)C2=O)cc1OC (centres undefined)
-9% | CSc1ccccc1NC(=O)N1CCCC(C(=O)c2ccc3c(c2)OCO3)C1 (centres undefined)
-23% | CC(C)(C)c1nnc(NS(=O)(=O)c2cc(Cl)ccc2Cl)s1
15% | O=C(CCC1N=C2c3ccccc3N=C(SCC(=O)Nc3ccc(F)cc3)N2C1=O)NCc1ccco1 (centres undefined)
13% | CCS(=O)(=O)Nc1ccc(-c2nnc(SCC(=O)OC)o2)cc1
-13% | NS(=O)(=O)c1ccc(CCNC(=O)COc2ccc3c4c(c(=O)oc3c2)CCC4)cc1
8% | Cc1c(C)n(Cc2ccccc2)c2ccc(C(=O)N3CCN(c4ccccc4F)CC3)cc12
? | Cc1ccc2nc3c(c(Nc4ccc5c(c4)OCCO5)c2c1)CCC3
1% | CC1=NN(C(=O)COc2cc(C)ccc2C(C)C)C(O)(c2ccccc2)C1 (centres undefined)
? | Cc1ncc(CO)c(/C=N/Nc2ccc(C(F)(F)F)cn2)c1O
7% | COc1ccccc1CNC(=O)c1ccc(CSc2nc3ccncc3n2Cc2cccc(F)c2)cc1
? | COc1ccc(Nc2c3c(c(C#N)c4nc5ccccc5n24)CCC3)cc1
5% | O=C(NNC(=O)C1CC(c2cccs2)=NO1)NC1CCCCC1 (centres undefined)
0% | COc1cccc(/C=N/NC(=O)c2ccc([N+](=O)[O-])cc2Cl)c1O
-16% | Cc1ccc2ncc(C(=O)c3ccc(C)c(C)c3)c(S(=O)(=O)c3ccc(F)cc3)c2c1
? | N#CC1=C(N)C2=CCCC[C@H]2[C@H](c2ccc(Br)cc2)C1(C#N)C#N
2% | COc1ccc(S(=O)(=O)NCC(c2cccnc2)N2CCN(c3ccccc3OC)CC2)cc1C (centres undefined)
-13% | NC(=O)c1ccc(OCC(F)(F)F)nc1
13% | O=C(COc1ccc(Cl)cc1)Nc1ncc([N+](=O)[O-])s1
1% | Cc1cc(C(F)F)n2nc(C(=O)Nc3sc4c(c3C(N)=O)CCC4)nc2n1
-5% | O=C(C[C@H]1C[C@H](C(=O)N2CCOCC2)[C@@]2(CCC3CCCC3)c3[nH]c4ccc(Cl)cc4c3CCN2C1=O)NCCN1CCOCC1
-1% | COc1ccc(OCCCC(=O)N2CCN(S(=O)(=O)c3cccc(F)c3)CC2)cc1
8% | CCCCC(=O)Nc1cc([N+](=O)[O-])ccc1F
17% | CC(=O)NC(Cc1ccc(F)c(F)c1)C(=O)NC1CCN(c2c(Cc3ccccc3)c(C)nc3ncnn23)CC1 (centres undefined)
? | COc1cccc(-c2ccc3ncnc(N4CCNCC4)c3c2)c1
-12% | CC(NC(=O)Cc1ccc(Br)cc1)c1ccccc1 (centres undefined)
-22% | Cc1cccc(C)c1NC(=O)c1cc2sccc2n1Cc1ccc(F)cc1
-8% | COc1cccc(C2CC(C(F)(F)F)n3ncc(C(=O)NCc4ccco4)c3N2)c1 (centres undefined)
-14% | CCOc1ccccc1N1CCN(C(=O)c2cc3ccccc3cc2OC)CC1
? | CC(C)[C@H]1COCCS(=O)(=O)N1Cc1ccccc1-c1ccccc1
6% | O=C(Nc1cccnc1)c1cc2c(s1)-c1ccccc1OC2
0% | CC(C)CNS(=O)(=O)c1ccc(CCC(=O)NCc2ccc(Cl)cc2)cc1
3% | CCOC(=O)c1sc2nc(C)cc(C)c2c1NC(=O)c1ccco1
-2% | Cc1cc(S(=O)(=O)NCCN2CCOCC2)ccc1Cl
4% | COCCn1c(SCC(=O)c2ccc(C)cc2)nc2cc(C(=O)NC3CCCC3)ccc2c1=O
9% | CC(NC(=O)COC(=O)CN1C(=O)C2CCCCC2C1=O)c1ccccc1 (centres undefined)
-18% | NC(=O)c1ncn([C@@H]2O[C@H](CNCc3ccccc3OCc3ccc(Cl)cc3Cl)[C@@H](O)[C@H]2O)n1
1% | O=C(COC(=O)C12CC3CC(CC(Br)(C3)C1)C2)Nc1cccc(S(=O)(=O)N2CCOCC2)c1
-11% | c1cc(-c2sc(-c3ccncc3)c(-c3ccncc3)c2-c2ccncc2)ccn1
17% | CCCNC(=O)C(=O)NCCC1=CCCCC1
7% | Cc1ccc(N2C(=O)CSC23C(=O)Nc2ccccc23)cc1 (centres undefined)
-2% | CC(C(N)=O)N1C(=O)C2C3C=CC(C3)C2C1=O (centres undefined)
71µM* | CCCCCOc1ccc(C2C(C(=O)c3ccc(C)o3)=C(O)C(=O)N2c2cc(C)on2)cc1 (centres undefined)
-5% | COc1ccc(NC(=O)c2cccs2)cc1O
-1% | O=C1OCCC1N(C(=O)C1CC1)c1cccc(Cl)c1 (centres undefined)

Carrying on.
VDR inh | Structure
-22% | CC(C)(C)C1CCc2c(sc(NC(=O)CSc3ncn[nH]3)c2C#N)C1 (centres undefined)
11% | O=C(C1=C(O)C(=O)N(CCOCCO)C1c1ccccn1)c1cccs1 (centres undefined)
18µM* | Oc1c(C(c2ccccn2)N2CCOCC2)ccc2cccnc12 (centres undefined)
-14% | C=CCN1CCN(C(c2ccc(OC)c(OC)c2)c2nnnn2C(C)(C)C)CC1 (centres undefined)
-10% | Cc1ccc(Nc2nc(COC(=O)C3CC3)cs2)cc1
-11%&-24% | Cn1c(=O)[nH]c2ncn(C)c2c1=O
? | CC(C)c1ccc(S(=O)(=O)c2cnc(SCC(=O)Nc3ccc4c(c3)OCCO4)[nH]c2=O)cc1
9% | COC(=O)c1ccccc1NC(=O)CSc1nc(C)c(Cl)c(C)c1C#N
23% | COc1ccc(-n2cnc3cc(C(=O)NCCC4=CCCCC4)ccc32)cc1
-4% | O=C(c1ccc2ccccc2c1)C1CCCN(C(=O)CCn2cnnn2)C1 (centres undefined)
5% | CCC(=O)N1CCN(c2ccc(NC(=O)c3ccc4c(c3)OCCO4)cc2)CC1
1% | O=c1c2ccccc2nc(-c2ccccc2)n1CCCN1CCOCC1
23% | COc1cc([N+](=O)[O-])c(C(=O)N2CCOCC2)c([N+](=O)[O-])c1
-19% | O=C(c1cnccn1)N1CCC2(CC1)CN(Cc1cc(C(F)(F)F)cc(C(F)(F)F)c1)C2
-9% | O=C(CCCC(=O)OCC(F)(F)C(F)F)Nc1ccccc1F
-22% | Oc1ccccc1C(=S)N1CCCCC1
-29% | Cc1nc(NC(=O)CSc2nnc(-c3ccc4c(c3)OCO4)o2)c(Cl)cc1Cl
9% | CN1c2ccccc2N(C)C1c1ccc2c(c1)OCO2
-1% | COc1ccccc1CNC(=O)COC(=O)Cc1c(F)cccc1Cl
-8% | CC(=O)c1cccc(NC(=O)[C@H](Cc2ccccc2)N2Cc3ccccc3C2=O)c1
13% | CC1=CC(C)(C)NC(=S)N1CCO
-7% | COC(=O)CSc1nc(Cc2ccccc2)nc2ccccc12
-10% | Cc1cc(NNC(=O)c2cccc(C(F)(F)F)c2)nc2c1c(C)nn2C
6% | CCCC(=O)Nc1ccccc1NC(=O)c1ccc(OCC)cc1
3% | Cc1ccc(NC(=O)C2(c3ccc([N+](=O)[O-])cc3)CCCC2)cc1
-8% | CC(NC(=O)c1cc(S(=O)(=O)N2CCCC2)cn1C)c1ccccc1 (centres undefined)
? | CC(=O)NC1=NC(=O)/C(=C/c2cn(C(C)=O)nc2-c2ccccc2)S1
-2% | O=c1cc(NCCO)c2ccccc2o1
-9% | COC(=O)N1CCC2(CC1)CN(C(c1ccccc1)c1ccccc1)C2
-1% | COc1ccccc1CNS(=O)(=O)c1cc2c3c(c1)C(C)C(=O)N3CCC2 (centres undefined)
8% | Cc1ccc(C)c(NC(=S)NCCN2CCOCC2)c1
89µM* | C=CCCC1CN(CCCC)S(=O)(=O)c2c(F)cccc2O1 (centres undefined)
8% | COc1ccccc1CN1C[C@@H]2C[C@@H](c3ccccc3C)N3CCC[C@@]23C1=O
? | CCOc1ccccc1NC(=O)c1c(NC(=O)CCC(=O)O)sc2c1CCCCC2
-4% | CCOc1ccc(C2N(c3ccc(F)cc3)C(=O)C3CCCN32)cc1OC (centres undefined)
-5% | Cc1cnc(CNc2ccnc(-c3cccc(NS(C)(=O)=O)c3)n2)cn1
13% | COc1ccc(C(C)(C)C)cc1NC(=O)COC(=O)c1ncc(Cl)c(Cl)c1Cl
-1% | CCC(C)(C)n1nnnc1C(c1ccncc1)N1CCN(c2cccc(OC)c2)CC1 (centres undefined)
-9% | COc1ccccc1N(CC(=O)NCC1CCCO1)C(=O)CNS(=O)(=O)c1ccc(C)cc1 (centres undefined)
8% | CC(=O)c1ccc(NC(=O)c2nc(-c3ccccc3)n(-c3ccc(Cl)cc3)n2)cc1
-10% | Cc1ccc(C(=O)N2N=C(c3cccc(NS(C)(=O)=O)c3)CC2c2cccs2)cc1 (centres undefined)
12% | Cc1c(C(=O)NC2CCCCC2)oc2ccc(F)cc12
0% | Cc1ccc2nc(SCC(=O)NCc3cccs3)c(C#N)cc2c1
6% | CCCCCCC(=O)NN1CCN(C)CC1
10% | COc1ccc(C(=O)Nc2n[nH]c(-c3ccncc3)n2)cc1
20% | CCOC(=O)c1cc(C#N)c(N2CCN(c3ccccn3)CC2)nc1-c1ccccc1
4% | O=C(c1ccccc1)N(Cc1ccc2c(c1)OCO2)Cc1nc2ccccc2c(=O)[nH]1
9% | COc1cccc(/C(C)=N/NC(=O)c2ccc(N(C)C)cc2)c1
12% | O=C(NNC(=O)c1cccc2ccccc12)c1cccc(Br)c1
-4% | O=[N+]([O-])c1ccccc1-c1nc(-c2ccc(Br)o2)no1

Further records.
VDR inh | Structure
1% | COc1ccccc1Oc1nc2c(c(=O)n(Cc3ccccc3F)c(=O)n2C)n1C
-6% | CC(C)(C)c1csc(NC(=O)c2ccc3nccnc3c2)n1
1% | Cc1ccc(OCCNC(=O)c2cccc(S(=O)(=O)NCc3ccccc3)c2)cc1
-10% | CC(CCc1ccccc1)NC(=O)c1ccc(NC(=O)c2ccc(Cl)cc2Cl)cc1 (centres undefined)
-6% | CCC(C)(C)n1nnnc1C(c1ccc(OC)c(OC)c1)N1CCN(C(=O)c2ccco2)CC1 (centres undefined)
-21% | Cc1ccc(/C=C2\SC(=S)N(CCCC(=O)NNC(=O)c3ccccc3O)C2=O)cc1
-10% | CCOC(=O)c1c(NC(=O)CSc2nnc(-c3ccccc3C)n2C)sc(C(C)=O)c1C
-10% | CN1CCN(C(=O)C(N)Cc2ccccc2)CC1 (centres undefined)
14% | CCOC(=O)CSc1n[nH]c(NC(=O)c2cccc(C)c2)n1
? | CCc1ccc(C(=O)CSc2n[nH]c(C)n2)cc1
8% | CC1CC[C@@]2(OC1)OC1CC3C4CC[C@H]5CC(O)CC[C@@]5(C)C4CC[C@]3(C)C1C2C (some centres undefined)
10% | CSCCC(NS(=O)(=O)c1ccc2c(c1)oc(=O)n2C)C(=O)NCCc1ccc(C)cc1 (centres undefined)

Filtered by structure: the compounds so far containing a CF3 group (five)
VDR inh | Structure
? | Cc1ncc(CO)c(/C=N/Nc2ccc(C(F)(F)F)cn2)c1O
-13% | NC(=O)c1ccc(OCC(F)(F)F)nc1
-8% | COc1cccc(C2CC(C(F)(F)F)n3ncc(C(=O)NCc4ccco4)c3N2)c1 (centres undefined)
-19% | O=C(c1cnccn1)N1CCC2(CC1)CN(Cc1cc(C(F)(F)F)cc(C(F)(F)F)c1)C2
-10% | Cc1cc(NNC(=O)c2cccc(C(F)(F)F)c2)nc2c1c(C)nn2C

This is a subset; count on the stated rates, not on these rows.
